MLL AF4-AF9 inh – blocks AF4 peptide binding to human AF9. P42568. AlphaScreen, biotin-AF4 peptide binding to FLAG-AF9. inhibition, % at 10 µM. 350,000 compounds, 0.47% hits. AID 651704;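 active = every replicate reaching a set inhibition limit, whatever the replicate mean, cut at about 25% in these data; inconclusive = mean inhibition reaches that limit but some replicates miss it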;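 note: 0% = plate neutral control median and 100% = total signal loss; the record names both 10 and 1 µM as test concentration; the first replicate is given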
Target sequence (P42568 whole entry, looked up): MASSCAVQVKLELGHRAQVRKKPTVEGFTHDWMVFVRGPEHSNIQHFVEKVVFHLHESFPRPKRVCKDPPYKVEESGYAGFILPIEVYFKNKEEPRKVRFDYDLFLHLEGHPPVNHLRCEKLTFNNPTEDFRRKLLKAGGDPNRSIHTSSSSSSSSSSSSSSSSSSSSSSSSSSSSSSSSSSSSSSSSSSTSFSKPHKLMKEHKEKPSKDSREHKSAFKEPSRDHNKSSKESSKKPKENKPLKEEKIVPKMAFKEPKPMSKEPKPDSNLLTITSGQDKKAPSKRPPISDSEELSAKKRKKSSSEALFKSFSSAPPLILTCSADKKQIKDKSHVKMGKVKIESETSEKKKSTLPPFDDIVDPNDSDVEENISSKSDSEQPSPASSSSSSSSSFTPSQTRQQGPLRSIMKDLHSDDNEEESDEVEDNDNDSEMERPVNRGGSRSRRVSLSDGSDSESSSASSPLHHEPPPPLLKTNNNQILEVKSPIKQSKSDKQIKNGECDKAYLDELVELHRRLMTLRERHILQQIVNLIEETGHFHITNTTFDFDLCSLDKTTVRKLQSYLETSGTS
RanGTP-Imp inh – inhibitors of RanGTP-importin-beta interaction, primary screen, biochemical, FRET, CFP-Ran, YFP-importin-beta, homogeneous; cell-free CFP-Ran/YFP-importin-beta FRET ratio; inhibition, % (concentration not given with the values); 300,000 compounds, 1.1% hits;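 active = most replicates above 15%; inconclusive = exactly half above 15%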;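 note: 0% = DMSO wells and 100% = Ran loaded with GDP instead of GTP; wells of about 40 µL received 100 nL stock; the first replicate is given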
FGF22 binding – binders of recombinant human FGF22 by thermal shift; Q9HCT0; SYPRO orange fluorescence; percent of sucrose octasulfate shift, DMSO zero; calls only at 9.99 µM; 340,000 compounds, 1.5% hits; AID 651658;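 active = melting point raised past a set limit in the mean and every replicate; inconclusive = no clear call; three in four hits are not shown here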
Ecoli growth – E. coli growth inhibition; AID 1053175; 330,000 compounds, 0.21% hits; OD600 absorbance (no concentration beside the values); Escherichia coli growth, OD600, 23 h; active compounds read low;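 active = OD600 absorbance below the run mean of sample wells minus 3.6 SD, in any replicate, cut at about 0.56 in these data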;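 note: stock transfer was 300 nL into about 60 µL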
UCH37 DUB inh – human UCH37 deubiquitinating enzyme inhibition. 330,000 compounds, 0.33% hits. inhibition, % (concentration not given with the values). purified proteasome/UCH37, Ub-AMC cleavage fluorescence. Q9Y5K5. AID 588478;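 active = mean of two replicates above 20%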;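 note: 0% = compound-free wells with enzyme and 100% = wells lacking proteasome; stock transfer was 100 nL into about 20 µL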
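Assay system: Proteasome-bound UCH37. Buffer or medium: pH 7.4 Tris-HCl (50 mM) with ovalbumin, ATP-MgCl2, DTT. Incubation: 30 min preincubation with enzyme, 25 min cleavage at room temperature. Measured by: fluorescence, ex 355 nm, em 460 nm. Read-out basis: percent inhibition. Control set: wells without proteasome as full block, compound-free enzyme plus substrate as uninhibited.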
Vif TR-FRET – inhibitors of Vif binding to APOBEC3G peptide, primary screen, biochemical, TR-FRET, GST-Vif 1-94, biotin-A3G peptide, dose response retest (AID 1117319); TR-FRET GST-Vif / biotin-A3G peptide binding; higher % means a stronger effect; test concentration not given here; strong numbers were not always called active; inhibition, %; hits with a dose series show IC50 in µM; 260,000 compounds, 0.57% hits;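 active = above the screen mean plus three standard deviations and confirmed in dose response; inconclusive = results disagree or hit not tested in dose response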;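 note: Vif residues 1-94 fused to GST binding biotinylated APOBEC3G peptide 110-148; 0% = full assay without inhibitor and 100% = GST in place of GST-Vif; retest series ran down from 100 µM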
HNF4A DNA FP – change in binding of human HNF4 alpha to DNA; activity change, % at 10 µM; HNF4a-FITC DNA binding, fluorescence polarization, 1 h; 360,000 compounds, 0.3% hits; in the data active = activity change above about 30%, passing the limit was not always enough;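 note: controls were the assay level and a saturating level of protein; the project sought stronger binding though the title names inhibitors; some compounds called inactive have numbers as strong as hits; positive values seem to mean higher polarization but the record does not say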
Target sequence (P41235 whole entry, looked up): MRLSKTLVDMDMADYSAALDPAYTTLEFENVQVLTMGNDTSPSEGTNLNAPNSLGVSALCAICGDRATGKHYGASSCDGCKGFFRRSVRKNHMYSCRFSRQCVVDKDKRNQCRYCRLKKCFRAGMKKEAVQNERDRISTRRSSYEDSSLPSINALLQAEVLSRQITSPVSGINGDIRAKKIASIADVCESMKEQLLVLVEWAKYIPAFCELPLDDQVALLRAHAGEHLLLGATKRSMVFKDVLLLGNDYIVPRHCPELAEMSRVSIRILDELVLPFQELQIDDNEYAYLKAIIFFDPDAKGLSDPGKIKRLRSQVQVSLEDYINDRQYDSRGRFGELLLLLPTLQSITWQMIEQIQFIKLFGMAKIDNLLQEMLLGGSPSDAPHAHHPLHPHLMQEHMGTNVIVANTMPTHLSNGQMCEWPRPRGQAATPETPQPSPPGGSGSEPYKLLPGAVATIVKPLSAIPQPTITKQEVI
Numbers without * were called inactive; i = inactive; ? = inconclusive; . = not tested or not shown. This is a subset (hit frequency here may not be typical).

smiles	MLL AF4-AF9 inh	RanGTP-Imp inh	FGF22 binding	Ecoli growth	UCH37 DUB inh	Vif TR-FRET	HNF4A DNA FP
Cc1ccc(N2CCN(C(=O)c3cccc([N+](=O)[O-])c3)CC2)cc1Cl	4.9	-2.6	i	0.696	-2.9	20.6%	2.8
CCc1ccc(C2CC(c3ccc(Cl)cc3)n3nc(N)nc3N2)cc1 (stereo unspecified)	0.8	-5.3	i	0.764	4.8	4.0%	3.4
COC(=O)c1nn(-c2ccccc2)c2nnc(Cc3ccc(C)cc3)c(=O)n12	.	-3.0	.	0.688	2.5	14.4%	0.7
CSCCC(NC(N)=O)C(=O)Nc1cccc(S(=O)(=O)N2CCOCC2)c1 (stereo unspecified)	-0.3	-1.2	i	0.672	1.7	-9.7%	3.1
Cc1cccc(C(C)C)c1NC(=O)CSc1ncnc2[nH]ncc12	-1.1	.	i	0.685	-1.4	.	-1.4
CCc1c(C#N)c(SCCC(=O)Nc2ccc(OC)cc2)nc2c1C(=O)CC(C)(C)C2	.	0.6	.	0.723	1.9	-0.2%	0.5
CN(CC(=O)Nc1ccccc1Br)C(=O)C(Cc1ccccc1)NC(=O)c1ccccc1 (stereo unspecified)	-1.2	9.1	i	0.707	3.6	0.7%	0.1
Cc1nc2nc(SCC(=O)Nc3cccc(F)c3)[nH]c2cc1Br	1.9	-1.8	i	0.649	0.6	-11.0%	4.3
CSc1nc2ccccc2n1CC(=O)Nc1c(C)n(C)n(-c2ccccc2)c1=O	.	-1.4	.	0.719	-1.1	0.4%	-2.2
COc1ccc(C(=O)NCc2nnc(SCC(=O)Nc3nnc(C)s3)o2)cc1OC	-4.9	1.3	i	0.693	1.7	17.2%	1.3
COc1ccc(CNC(=O)C2CCCN(S(=O)(=O)c3ccc4c(c3)CCCN4C(C)=O)C2)cc1 (stereo unspecified)	-0.6	1.4	i	0.655	1.1	3.9%	-2.6
CCCC(CCC)n1[nH]c(=O)c2c(C)cc(C)nc21	.	.	.	0.719	-2.5	17.4%	-0.9
CCS(=O)(=O)N1CCC(NC(=O)C2CCCCC2)CC1	.	5.6	.	0.66	4.5	-4.0%	2.0
COC(=O)NNC(=O)Cc1cccc2ccccc12	-5.8	2.9	i	0.692	4.7	-7.6%	2.0
O=C1C2C3C=CC(C3)C2C(=O)N1c1ccc2ccccc2c1 (stereo unspecified)	-1.6	0.5	i	0.711	3.1	.	-1.1
CCOC(=O)N1CCC(N2Cc3cccc(C(=O)Nc4ccc(OC)c(OC)c4)c3C2=O)CC1	0.8	-0.3	i	0.75	3.9	7.8%	3.4
Cc1ccc(S(=O)(=O)N2CC3C(=O)C[C@@H](c4ccccc4Cl)N(S(=O)(=O)c4ccc(C)cc4)C3CC2c2ccccc2)cc1 (stereo partly specified)	-3.0	.	i	.	.	.	0.8
Cc1ccc(CNC(=O)Cn2cnc3c(NC(=O)OCc4ccccc4)ncnc32)o1	.	.	i	0.773	-0.1	.	4.0
COC(CNc1ccc([N+](=O)[O-])c(NCC(OC)OC)c1C#N)OC	-0.5	4.8	i	0.687	11.4	2.9%	3.9
COc1ccc(N(CC(=O)NC2CCCCC2)C(=O)CNC(=O)c2ccco2)c(OC)c1	.	7.0	.	0.762	4.1	2.8%	4.5
CCOC(=O)[C@]12CCC=C1N(Cc1cccc3ccccc13)C(=O)[C@H](CC(=O)NCc1cccc(C(F)(F)F)c1)C2	-0.2	.	i	.	.	.	0.0
COc1ccccc1CCC(=O)OCC(=O)N1CCN(S(=O)(=O)c2ccc(C)cc2C)CC1	0.1	-0.1	i	0.664	-0.9	-6.0%	1.9
CCOC(=O)C1(C)CCCN(C(=O)c2cccc(OC(F)(F)F)c2)C1 (stereo unspecified)	-0.3	.	i	.	.	.	-0.6
CCOC(=O)C(=O)N(C)c1c(CC)nc2c(OCc3cccc(Cl)c3)cccn12	2.9	.	i	.	.	.	-0.7
CCN1CCN(C(=O)NC2CC(=O)N(c3ccc(OC)cc3)C2)CC1 (stereo unspecified)	0.2	-1.5	i	0.682	3.7	14.3%	0.0
COc1ccc(CN2CCNC(=O)C2CC(=O)N2CCCCO2)c(OC)c1 (stereo unspecified)	-2.2	-4.7	i	0.712	-0.6	-7.8%	-10.9
Cc1c(CCC(=O)O)c(=O)oc2cc3occ(-c4ccccc4)c3cc12	-9.2	7.5	i	0.723	-7.4	-4.7%	-1.1
CC1(C)COC(Cn2c3ccccc3c3ccccc32)O1 (stereo unspecified)	-2.0	0.2	i	0.604	1.1	-4.8%	-0.8
O=C(OCC(=O)c1cccs1)c1ccccc1	.	-1.3	.	0.651	2.9	13.7%	1.2
COc1ccc(CCNC(=O)CCCCCN2C(=O)[C@@H]3Cc4ccccc4CN3C2=O)cc1OC	-2.9	1.3	i	0.674	0.4	.	-3.6
CN(C#N)c1nc(N2CCOCC2)nc(N2CCOCC2)n1	.	1.2	.	0.685	1.5	9.2%	-3.2
Cn1cc(-c2nnnn2-c2cccc(C(F)(F)F)c2)c(C(F)(F)F)n1	.	-0.3	.	0.691	3.6	5.5%	4.8
O=C(/C=C/c1ccco1)OCC(=O)c1cccc([N+](=O)[O-])c1	-0.7	0.8	i	0.663	6.4	.	-1.3
O=C(Nc1nc2ccccc2s1)C1CC(=O)N(c2ccc(F)cc2)C1 (stereo unspecified)	.	2.3	.	0.702	-1.8	6.9%	-0.9
COc1cccc(-c2cc(C(=O)NCc3ccc(Cl)cc3)no2)c1	.	0.6	.	0.696	1.3	3.8%	5.2
CC(=O)NC1=NN(C(C)=O)C(C)(CS(=O)(=O)c2ccc(Cl)cc2)S1 (stereo unspecified)	.	5.5	.	0.737	3.6	11.6%	-8.8
CC(=O)c1cnn(-c2ccccc2)c1C	-0.2	-3.7	i	0.684	-2.5	5.2%	1.0
COc1cc(/C=N/NC(=O)NC23CC4CC(CC(C4)C2)C3)ccc1OCC(N)=O	2.6	0.0	i	.	.	-8.2%	-0.5
O=C(c1ccnc(Cl)c1)N1CCCC(Nc2ccc(F)cc2)C1 (stereo unspecified)	-0.8	4.0	i	0.69	2.9	2.5%	2.6
CN(C(=O)c1cccc(NC(=O)Cc2ccc(NC(=O)C3CCN(C(=O)C4CCCC4)CC3)cc2)c1)C1CC1	5.2	.	.	0.674	2.3	.	0.9
Cc1ccc2cc(C3CC(c4ccco4)=NN3S(=O)(=O)c3ccccc3)c(Cl)nc2c1 (stereo unspecified)	4.4	1.8	i	0.692	1.3	.	8.0
O=C(C1CCC(CNS(=O)(=O)c2cccc3nsnc23)CC1)N1CCN(c2ccccn2)CC1 (stereo unspecified)	0.0	2.1	i	0.663	5.3	-9.3%	4.1
CCCOn1c(OCC(C)C)nc2ccccc2c1=O	.	-0.1	.	0.708	4.4	-3.4%	2.2
O=S(=O)(NCCc1c[nH]c2ccccc12)c1ccc(F)cc1	-27.2	.	i	.	.	0.2%	1.6
CCC1NC(=O)c2cccnc2-n2c1nc1ccc(F)cc1c2=O (stereo unspecified)	-1.6	.	i	.	.	4.7%	-0.5
Cc1ccc(S(=O)(=O)N2CCOC2CNC(=O)C(=O)NCc2ccccn2)cc1 (stereo unspecified)	-3.9	-0.8	i	0.696	1.7	-5.2%	7.8
Cc1ccccc1N1CCN(Cc2cccc(C(=O)O)c2)CC1	.	1.4	.	0.714	6.1	0.1%	1.1
O=C(CN1CCc2cc3c(cc2C1)OCCCO3)Nc1ccccc1	4.2	-0.7	i	0.741	4.2	.	-1.6
COc1ccc(Oc2nc3c(c(=O)n(C)c(=O)n3C)n2Cc2cccc(OC)c2)cc1	.	5.0	.	0.82	2.5	24.3%	-0.2
O=C(N/N=C/c1c[nH]c2ccc(Br)cc12)c1ccn(Cc2ccc(Cl)cc2Cl)n1	.	4.6	.	.	.	-2.9%	-2.6
COc1cc(C2SCC(=O)N2CCCN(C)C)cc(OC)c1OC (stereo unspecified)	.	1.7	.	0.717	1.4	15.8%	2.6
Cn1c(/C(C#N)=C(\O)c2ccc(S(=O)(=O)N3CCCCC3)cc2)nc2ccccc21	.	0.1	.	.	.	?	3.3
Cc1ccccc1Nc1n[nH]c(=S)s1	-3.9	.	i	.	.	.	1.5
Cc1ccccc1N1C(S)=C(C#N)C(=O)NC1c1cccs1 (stereo unspecified)	.	-0.3	.	0.735	4.1	?	1.5
CC(OC(=O)c1ccc2noc(-c3ccccc3)c2c1)C(N)=O (stereo unspecified)	1.3	1.6	i	0.695	-0.1	.	2.0
CC(=O)Nc1ccc2c(c1)C(=O)c1cccc(C(=O)O)c1-2	-1.7	.	i	.	.	-5.8%	1.3
CC(C)(CC(=O)O)CC(=O)NNc1ncccc1C#N	-0.4	-1.0	i	0.683	2.7	.	-4.5
CCN(CC(=O)NCc1ccc(Cl)cc1)C(=O)Cc1ccc(OC)cc1	2.8	-0.4	i	0.642	1.5	-3.0%	4.3
COc1cccc(-c2ocnc2C(=O)Nc2ccc(N3CCOCC3)cc2N2CCOCC2)c1	35.3*	0.7	i	0.703	2.1	.	3.5
CCC(C)NC(=O)COc1ccc(S(=O)(=O)N2CCOCC2)cc1 (stereo unspecified)	.	1.9	.	0.657	0.3	1.2%	3.0

Remaining list, next part:
smiles	MLL AF4-AF9 inh	RanGTP-Imp inh	FGF22 binding	Ecoli growth	UCH37 DUB inh	Vif TR-FRET	HNF4A DNA FP
CCN1CCCC1CNCc1cccc(OC)c1OCc1ccccc1F (stereo unspecified)	2.0	3.9	i	0.694	1.8	-5.5%	-0.8
O=C(N/N=C/c1ccc[nH]1)c1cccnc1	.	0.3	.	.	.	>100µM*	-0.4
O=C(Cc1cccc2ccccc12)NN1C(=O)C2C(C1=O)C1C=CC2C12CC2 (stereo unspecified)	.	3.7	.	0.716	1.0	4.4%	2.2
COc1cccc(OC)c1C(=O)NNC(=O)c1cccc(COc2ccc3c(c2)CCC3)c1	.	3.6	.	0.677	8.0	-0.3%	-3.3
CCN1c2ccc(S(=O)(=O)N3CCOCC3)cc2N(Cc2ccc(OC)cc2)C1C (stereo unspecified)	0.2	2.6	i	0.634	6.1	-6.5%	4.0
Cn1c(CN2CCOCC2)nnc1SCc1cccc(F)c1	-3.5	2.0	i	0.679	1.6	-8.3%	0.8

Exported field by field: part of the list above
> COC(=O)NNC(=O)Cc1cccc2ccccc12
  MLL AF4-AF9 inh = -5.8
  RanGTP-Imp inh = 2.9
  FGF22 binding = i
  Ecoli growth = 0.692
  UCH37 DUB inh = 4.7
  Vif TR-FRET = -7.6%
  HNF4A DNA FP = 2.0

> O=C1C2C3C=CC(C3)C2C(=O)N1c1ccc2ccccc2c1 (stereo unspecified)
  MLL AF4-AF9 inh = -1.6
  RanGTP-Imp inh = 0.5
  FGF22 binding = i
  Ecoli growth = 0.711
  UCH37 DUB inh = 3.1
  Vif TR-FRET = .
  HNF4A DNA FP = -1.1
